High-throughput results as filed in PubChem.
TRPML1 inh – blocks the human TRPML1 channel; Q9GZU1; 390,000 tested, 0.02% active; activity change, negative = inhibition, % (test concentration not listed); TRPML1-inducible cells, Ca2+ dye fluorescence, FDSS; stronger effect = lower value; inhibition of EC80 agonist-evoked calcium signal; in the data active means activity change below about -50%; inconclusive means about -30% to -50%; inactive means above about -30%;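 further: stimulus is agonist 54-4 at its EC80 concentration; on the % scale 0 is the no-effect control and ±100 the full control effect; compound concentration not given in the record; the text of the record puts the active cut at -80%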
Target sequence (Q9GZU1 whole entry, looked up): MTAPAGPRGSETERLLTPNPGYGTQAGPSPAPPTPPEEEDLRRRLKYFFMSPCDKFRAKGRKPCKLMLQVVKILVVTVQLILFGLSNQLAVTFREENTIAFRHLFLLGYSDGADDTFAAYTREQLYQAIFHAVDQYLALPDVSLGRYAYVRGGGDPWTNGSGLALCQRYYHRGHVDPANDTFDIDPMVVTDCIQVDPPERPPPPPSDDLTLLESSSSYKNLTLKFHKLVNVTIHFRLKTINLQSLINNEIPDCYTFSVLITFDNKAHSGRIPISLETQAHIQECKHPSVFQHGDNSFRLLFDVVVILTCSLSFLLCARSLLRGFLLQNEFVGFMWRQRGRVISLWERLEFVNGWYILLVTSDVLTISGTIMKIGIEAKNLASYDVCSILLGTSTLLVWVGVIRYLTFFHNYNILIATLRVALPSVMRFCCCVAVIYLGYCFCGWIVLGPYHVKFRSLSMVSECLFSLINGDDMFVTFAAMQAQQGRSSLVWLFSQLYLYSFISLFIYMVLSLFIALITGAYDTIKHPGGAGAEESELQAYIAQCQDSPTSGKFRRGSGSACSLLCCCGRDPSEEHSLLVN
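TRPML1-DL cells, Tet-induced overnight (~16 h, 37 °C) at 1,500 cells/well, were loaded with Ca8 no-wash dye plus quencher for 45-90 min at room temperature. Compounds were pinned during FDSS kinetic reading; agonist 54-4 at EC80 (4 uM final) then added.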
ClpP mod – qHTS Assay for Activators of ClpP | purified B. subtilis ClpP, FRET peptide cleavage, 20 min | 340,000 tested, 1.9% active | Potency, µM (top dose mostly 57.5 µM), for the others: at the highest dose activity change, negative = active | AID 651965, 2013; active = well fitted falling curve with a large enough effect; inconclusive = small, poorly fitted or top-dose-only effect; inactive = no such curve, though single readings can be large or run the other way; further: potency means the concentration at half of the fitted maximal effect; the source files actives as falling curves though it sought activators and does not explain the sign; nearly all actives have a fitted effect of over 65% in size; many hits overshoot -100%
Target sequence (P80244 whole entry, looked up): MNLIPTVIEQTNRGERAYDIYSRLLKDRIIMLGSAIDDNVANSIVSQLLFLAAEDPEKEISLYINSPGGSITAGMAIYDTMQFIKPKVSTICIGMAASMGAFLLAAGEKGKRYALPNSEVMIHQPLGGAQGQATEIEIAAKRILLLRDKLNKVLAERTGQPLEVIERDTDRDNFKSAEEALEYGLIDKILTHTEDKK
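Purified B. subtilis ClpP, 10 microg/mL final in Tris/HCl pH8 with KCl, BSA, glycerol and Tween-20, cleaved an Abz/nitrotyrosine-quenched decapeptide. Fluorescence (ex 320, em 430) was read at 0 and 20 min at room temperature. Delta was normalized to 5.8 microM ADEP and DMSO/no-enzyme controls.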
gsp antagonist – antagonizes gsp, the McCune-Albright syndrome mutation | gsp-mutant cells, cAMP HTRF, 30 min; control for the full effect not named in the record | Potency, µM (doses to about 76.9 µM), for inactives: at the top dose activity change, negative = inhibition, actives largely listed as inhibitors | 340,000 tested, 0.4% active | AID 624288; active = falling curve of any shape with a large fitted effect; inconclusive = falling curve, mostly with a smaller effect; inactive = flat or rising curve; cell line not stated here;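 further: intracellular cAMP measured with PDE inhibitor Ro 20-1724 present during compound exposure; potency means the concentration at half of the fitted maximal effect; on the % scale 0 is the no-effect control and ±100 the full control effect; nearly all actives have a fitted effect of over 65% in size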
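Cells in G418 medium, seeded 16-24 h, 37C; buffer exchange to DPBS + 1 mM CaCl2, 0.5 mM MgCl2, 0.05% BSA; cpds in DMSO + […] (300 uM stock), 30 min 37C; HTRF cAMP detection.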
gsp ag – activates gsp, the McCune-Albright syndrome mutation | Potency, µM (highest dose often 76.9 µM), for the others: at the top dose activation (cAMP increase), hits mostly activators | 340,000 tested, 0.13% active | gsp mutant cells, cAMP HTRF, 30 min; control for the full effect not named in the record; active = well fitted activation curve with a large enough effect; inconclusive = small, poorly fitted or top-dose-only effect, or another doubt; inactive = no such curve, though single readings can be large or run the other way; cell line not stated here;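 further: phosphodiesterase inhibitor Ro 20-1724 added with compounds to block cAMP breakdown; potency means the concentration at half of the fitted maximal effect; nearly all actives have a fitted effect of over 60% in size; about a fifth of the inactives were tested at one dose only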
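Cells in DMEM/10% FBS with G418 were pretreated with compounds in DMSO plus […] (300 uM stock) for 30 min at 37C. cAMP was measured by HTRF (cAMP-d2 plus anti-cAMP antibody-K) after 30 min at room temperature.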
TRPML1 ag – activates the human TRPML1 channel. activation, % (concentration not given with the values). 410,000 tested, 0.12% active. Q9GZU1. TRPML1-expressing cells, Ca2+ dye fluorescence, FDSS; host cell line not named in the record; reference of the full effect not given here; in the data active = activation above about 50%; inconclusive = about 30% to 50%; inactive = below about 30%; further: 0% is about no effect; the text of the record puts the active cut at 80%
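Kinetic FDSS Ca2+ read in Tet-induced TRPML1-DL cells (ABD Ca8 dye plus quencher, 45-90 min RT loading): baseline, then compound, then 110 s agonist window; EC80 agonist 54-4 at 4uM final added afterwards for a 110 s antagonist window.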
Menin-MLL FL inh – displaces fluorescein MLL peptide from human menin; Fluorescence polarization, fluorescein-MLL peptide displacement from menin; FP activity change, % at 61.4 µM; 290,000 tested, under 10 active; inconclusive = falling polarisation curve, or a change in total fluorescence; inactive = total fluorescence flat and polarisation flat or rising; no compound was filed as active; the % refers to the polarisation; negative = inhibition;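 further: % of control where 0% means no effect; inhibitors lower the polarisation; unlabelled MLL peptide was the positive control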
The depositor's hits bear a star; ? = inconclusive; . = no result given; & = joins results of further samples; [ ] = another dose, or the depositor's remark.

Under each structure: TRPML1 inh, ClpP mod, gsp antagonist, gsp ag, TRPML1 ag, Menin-MLL FL inh
CC1(C)CC(=O)C2=C(C1)OC(N)=C(C#N)[C@@]21C(=O)N(CC(N)=O)c2ccccc21
→ 16, -2.1%, 7%, 24%, 2.1, 0.9
O=S(=O)(NCc1ccccc1)c1ccc(-n2cccn2)cc1
→ 32, -1.7%, 10%, 1%, 4.7, -3.8
COCCn1c(=S)[nH]c2cc(C(=O)NC3CCCCC3C)ccc2c1=O (configuration not stated)
→ -9, -2.4%, ., -29%, -0.4, .
Cc1cc(C(=O)O)ccc1-c1ccc(CO)o1
→ -2, ., 2%, 29%, 0.5, 2.8
CCN(CC)S(=O)(=O)c1cccc(C(=O)NC(C(=O)NNC(=O)c2ccccc2F)C(C)C)c1 (configuration not stated)
→ 1, -2.2%, -4%, -6%, -0.6, .
C=CCn1c(SCC(=O)Nc2nc3ccccc3s2)nc(O)c(CC)c1=O
→ -8, ., -16%, -3%, -0.4, 3.8
CN(CC(=O)NCC1CCCCC1)S(=O)(=O)c1ccc(F)cc1
→ -9, ., 8%, -73%[inhibitor], 0.2, 0.0
CC1CCCC(NC(=O)COC(=O)[C@@H](NC(=O)c2ccco2)C(C)C)C1C (some centres not stated)
→ -12, ., -5%, ?, -0.7, -5.9
O=C(NCc1ccccc1F)C(=O)NCC(c1cccs1)S(=O)(=O)c1cccs1 (configuration not stated)
→ -4, -2.5%, ., ., -0.3, .
Cc1occc1C(=O)NNS(=O)(=O)c1ccc([N+](=O)[O-])cc1
→ 17, ., -1%, -18%[15.4 µM], -0.6, -8.3
COc1cc(-c2nc(Cn3nnc(C(=O)Nc4ccccc4C)c3C)c(C)o2)cc(OC)c1OC
→ 8, -7.6%, ., ., -0.7, .
COc1ccc(CCNC(=O)COC(=O)c2ccc(N3CCCC3=O)cc2)cc1OC
→ -3, ., -37%, 23%[15.4 µM], 0.4, 16
Cc1cc(C(=O)N/N=C/c2c3ccccc3cc3ccccc23)n[nH]1
→ 4, ., -4%, -2%[15.4 µM], 0.7, 3.8
COc1ccc(NC(=O)N2CCCC2)cc1OC
→ -10, -1.5%, 5%, 2%, -0.2, 2.4
NC(=O)c1ccc2c(=O)c(O)c(-c3cc(Cl)c(N)c(Cl)c3)[nH]c2c1
→ 1, 3.9%, 10%, 0%, -0.2, -5.1
Cc1cccc(NS(=O)(=O)c2ccc(NC(=O)N3CCCC3)cc2)c1
→ 5, -0.1%, ., ., -0.2, .
O=C(NCCCN1CCOCC1)c1ccc(S(=O)(=O)Nc2ccccc2)cc1
→ -1, -2.2%, 3%, 8%, 0.1, .
CCOC(=O)c1c(C)nc2ncccn12
→ -6, ?, 22%, 0%, -0.6, 1.6
COc1ccccc1N(C(=O)CNC(=O)c1ccco1)C(C(=O)NC1CCCC1)c1ccco1 (configuration not stated)
→ 27, ., 0%, 9%[15.4 µM], 0.0, -0.8
Cc1ccc([N+](=O)[O-])c(OCCCNCC(C)O)c1 (configuration not stated)
→ -10, ?, 1%, -6%[15.4 µM], 0.2, -1.0
COC(=O)/C(=C\c1ccc(O)cc1)c1nc2ccccc2[nH]1
→ 21, 5.7%, -2%, -76%[inhibitor], -0.1, 6.8
O=C/C(=C\Nc1ccc(Cl)cn1)c1nc2ccccc2o1
→ 27, -2.5%, -9%, -32%, 0.5, 8.3
COc1ccc(N(CC(=O)NC2CC3CCC2C3)S(=O)(=O)c2ccccc2)cc1Cl (configuration not stated)
→ -19, -1.5%, ?, -1%, 2.5, .
CCCn1cnc2c(SCc3ccccc3F)nc(N)nc21
→ 8, ., 3%, -26%, 0.4, .
CCN(Cc1nc(-c2cccc(C)c2)no1)S(=O)(=O)c1ccc(C)cc1
→ 59, 0.2%, ., ., 6.4, .
COc1ccccc1CNC(=O)c1ccc(-c2ccccc2Cl)o1
→ -8, -12%, ?, ?, 1.2, 3.7
O=C(CCC(=O)OCC(=O)c1cccc([N+](=O)[O-])c1)Nc1cccc(Cl)c1Cl
→ 1, 1.1%, 4%, 2%, -0.5, -2.6
COc1ccc(N2CC(NC(=O)/C=C\c3ccc(OC)c(OC)c3)CC2=O)cc1 (configuration not stated)
→ -1, 32µM*, ., ., -0.3, .
Cn1c(SCC(=O)N(Cc2ccccc2)C(C)(C)C)nc2ccccc21
→ 25, -0.9%, -24%, 3%, 3.7, -0.1
CCOc1ccccc1N(CC(=O)Nc1ccc(S(=O)(=O)N2CCOCC2)cc1)S(=O)(=O)c1ccc(Cl)cc1
→ 2, 0.6%, 6%, -4%, -0.1, .
O=C(Cc1cccc2ccccc12)N/N=C/c1ccc(O)c([N+](=O)[O-])c1
→ -19, ., -12%, 8%[15.4 µM], 0.7, -0.4
CCCCN(C(=O)C(CCSC)N1C(=O)c2ccccc2C1=O)c1c(N)n(CCC)c(=O)[nH]c1=O (configuration not stated)
→ -7, 0.2%, 4%, ?, 0.1, .
O=C1CC(=C2c3ccccc3-c3ccccc32)C(=O)N1CCN1CCN(c2cccc(Cl)c2)CC1
→ -2, -0.2%, 1%, -33%[inhibitor], 0.1, .
COc1cc(/C=N\NC(=O)c2ccc(Cn3nc([N+](=O)[O-])c(Cl)c3C)o2)ccc1O
→ -3, -2.7%, -24%, 1%, 3.7, 0.4
Cc1cc(C)nc(N=Nc2c(O)n(Cc3ccc(Cl)cc3)c3ccccc23)n1
→ 18, -1.4%, -10%, -8%, 0.3, 1.9
CC1=NN(c2nc(C)cc(C)n2)C(=O)C1CCC(C)C (configuration not stated)
→ 1, -0.5%, 15%, 26%, 1.4, 1.8
CCOc1ccc2oc(C(=O)Nc3cc(C)ccn3)c(C)c2c1
→ -9, 1.6%, -17%, -12%[15.4 µM], 2.8, .
COC(=O)C(Cc1ccc(O)cc1)NC(=O)C12CC3CC(CC(C3)C1)C2 (configuration not stated)
→ -17, 0.0%, -17%, -78%[inhibitor], 0.0, 0.0
CCN(CC)C(=O)CSC1c2ccccc2C(=O)N1c1ccccc1 (configuration not stated)
→ -20, -0.3%, 0%, -4%, 0.9, 1.7
S=c1[nH]nc(COc2ccccc2)n1/N=C/c1ccncc1
→ 9, -3.5%, -14%, -32%, -0.6, 0.6
COc1ccc(/C=N/NC(=O)c2cc(-c3ccc4c(c3)OCO4)n[nH]2)cc1OC
→ -20, 197%, -2%, -6%, 1.7, 4.8
Cc1ccccc1-c1cc2nc(Nc3ccc(F)cc3)n(C)c(=O)c2s1
→ -3, -6.7%, ., ., -0.5, .
COc1ccccc1C(=O)NC(=O)CSc1nc(C)cs1
→ -4, 28µM*, 0%, -2%[15.4 µM], -0.3, .
COc1cccc(/C=N/n2cnc3c(cnn3-c3ccccc3)c2=O)c1
→ -4, -0.1%, -24%, 7%[15.4 µM], -0.4, 0.1
CC(=O)C1=C(O)C(=O)N(Cc2cccnc2)C1c1ccc(Cl)cc1Cl (configuration not stated)
→ 7, -9.6%, -4%, -9%, -0.3, -1.7
COc1ccc(S(=O)(=O)Nc2ccc3c(c2)OCO3)cc1
→ -3, -0.3%, -14%, -64%[inhibitor], -0.1, 0.8
CC(/C=C/c1ccc2c(c1)OCO2)=N/NC(=O)CNc1ccc(C)cc1
→ -9, -7.3%, -10%, -9%, -0.6, .
O=C(c1ccccc1)n1ccn(-c2ccccc2)c1=S
→ -10, -5.3%, -7%, 13%, 0.0, 0.2
COc1ccc(CC(=O)N2CCC(n3nccc3NC(=O)C3CCOC3)CC2)cc1 (configuration not stated)
→ 6, ., 10%, 18%, 0.2, .
Cc1ccc(N(CC(=O)N2CCN(c3cc(Cl)ccc3C)CC2)S(=O)(=O)c2c(C)noc2C)cc1
→ 11, -0.7%, ., ., -0.6, .
CCOC(=O)c1c(/N=C/N(C)C)sc(/C=N/Nc2ccccc2)c1-c1ccccc1Cl
→ 5, ., -11%, 16%, 0.7, 5.0
O=C(Cc1noc2ccccc12)NNC(=S)Nc1ccc(Cl)cc1
→ 8, -0.9%, -7%, -3%[15.4 µM], 0.2, 2.0
COc1ccc(C2Nc3ccccc3C(=O)N2Cc2ccco2)cc1COc1ccc([N+](=O)[O-])cc1 (configuration not stated)
→ 3&25, -1.9%, -5%, -79%[inhibitor], 1.6&2.1, -1.1
Cc1ccc(Oc2coc3cc(OC(=O)c4cccs4)ccc3c2=O)cc1
→ 86, -1.7%, -18%, -2%, 1.6, 5.9
COc1ccc(CNC(=S)NC(C)CCc2ccccc2)cc1 (configuration not stated)
→ -6, 0.1%, -3%, ?, 0.7, 2.0
CC(NC(=O)C(=O)Nc1c2c(nn1-c1ccccc1)CSC2)c1ccccc1 (configuration not stated)
→ 0, -3.2%, ., ., 1.2, .
O=C(CSc1nnc(-c2ccc(Cl)cc2)o1)NNC(=O)c1ccncc1
→ -3, -0.6%, 6%, 21%, 3.0, .
CCc1cc(CNC(=O)CCc2nnc(CCCc3ccccc3)o2)on1
→ -10, -1.0%, -1%, 0%, -0.4, -2.2
CCn1c(=O)n(CC)c2cc(S(=O)(=O)N3CCOCC3)ccc21
→ -26, 0.3%, -1%, 2%, -0.5, 3.6
CC1CN(S(=O)(=O)c2cccc(C(=O)N=c3sccn3C)c2)CC(C)O1 (configuration not stated)
→ -13, -3.3%, 0%, -2%[15.4 µM], -0.4, .

Remaining list, next part
Under each structure: TRPML1 inh, ClpP mod, gsp antagonist, gsp ag, TRPML1 ag, Menin-MLL FL inh
CC(C)(C)OC(=O)N1CCC(c2c(C(=O)N3CCc4ccccc4C3)cnn2-c2ccc(Cl)cc2)CC1
→ -14, -1.4%, ., ., 3.2, .
CC(=O)Nc1ccc(/C=N/NS(=O)(=O)c2cc(C)ccc2C)cc1
→ 1, ., 2%, 0%[15.4 µM], -0.4, 1.7
O=C(Nn1cc(C(=O)Nc2ccccc2F)c2ccccc2c1=O)c1cnccn1
→ -22, 0.6%, -8%, 8%[15.4 µM], -0.1, 3.9
CCOc1cc(NC(=S)NCCCN2CCOCC2)c(OCC)cc1NC(=O)c1cccs1
→ 2, ., 3%, 6%[15.4 µM], -0.5, 3.1
Cc1c(O)ccc2c(-c3ccccc3)cc(=O)oc12
→ -7, -7.5%, -15%, 5%, 1.0, 21
CCCCCCn1c(C(C)NC(=O)c2ccco2)nc2ccccc21 (configuration not stated)
→ -5, 0.4%, -6%, 0%, 2.3, 1.8
Cc1cccnc1NC(=O)C1CCN(S(=O)(=O)c2ccc3c(c2)CCC(=O)N3)CC1
→ -12, -0.1%, 5%, ?, 0.3, -3.1
COC(=O)c1cc(S(=O)(=O)N2CCC(C)CC2)ccc1F
→ -5, -0.2%, -5%, 12%, 0.6, 1.9
Cc1nc(N2CCOCC2)c2c(C(=O)N(C)Cc3ccccc3)c(C)oc2n1
→ 6, 2.5%, ., ., -0.2, .
